Screening data from PubChem BioAssay.
PINK1 modulator: PINK1 expression modulation; PINK1 immunofluorescence, high-content cytometry, 24 h; Potency, µM (highest dose often 76.6 µM), for inactives: top-dose activation (PINK1 increase), hits mostly activators; actives 0.2% (n = 410,000); AID 624263; active = well fitted activation curve with a large enough effect; inconclusive = small, poorly fitted or top-dose-only effect; inactive = flat fitted curve, though single readings scatter; cell line not stated here;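 note: potency is the fitted concentration of half-maximal effect; % of control where 0% means no effect; nearly all actives have a fitted effect of over 65% in size; a mitochondrial uncoupler was the plate control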
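PINK1 protein, normally rapidly degraded, was detected by immunofluorescence after 24 hour compound treatment of a stable cell line. Titration data (5 concentrations) came from laser-scanning cytometry, with CCCP-treated wells as controls.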
Sfp inh: inhibitors of Bacillus subtilis Sfp phosphopantetheinyl transferase; Biochemical Sfp PPTase activity, qHTS; actives 3.5% (n = 310,000); Q9F4F7; Potency, µM, inactives show max response, negative = inhibition, actives largely listed as inhibitors; active = well fitted inhibition curve with a large enough effect; inconclusive = small, poorly fitted or top-dose-only effect, or another doubt; inactive = no such curve, though single readings can be large or run the other way;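 note: the enzyme is Sfp with the accession as filed and its product quenches rhodamine fluorescence; potency is the fitted concentration of half-maximal effect; 0% = enzyme reaction without inhibitor and -100% = no enzyme wells; top concentration of the series not given in the record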
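Compounds were incubated with enzyme (final 15 nM) for 15 min at room temperature before substrate addition started the reaction. Fluorescence at 525 nm excitation, 598 nm emission was recorded immediately and after 30 minutes.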
ClpP mod: qHTS Assay for Activators of ClpP | purified B. subtilis ClpP, FRET peptide cleavage, 20 min | Potency, µM (titrated, usually from 57.5 µM), for the others: at the highest dose activity change, negative = active | actives 1.9% (n = 340,000); active = well fitted falling curve with a large enough effect; inconclusive = small, poorly fitted or top-dose-only effect; inactive = no such curve, though single readings can be large or run the other way; note: potency is the fitted concentration of half-maximal effect; the source files actives as falling curves though it sought activators and does not explain the sign; nearly all actives have a fitted effect of over 65% in size; many hits overshoot -100%
Target sequence (P80244 whole entry, looked up): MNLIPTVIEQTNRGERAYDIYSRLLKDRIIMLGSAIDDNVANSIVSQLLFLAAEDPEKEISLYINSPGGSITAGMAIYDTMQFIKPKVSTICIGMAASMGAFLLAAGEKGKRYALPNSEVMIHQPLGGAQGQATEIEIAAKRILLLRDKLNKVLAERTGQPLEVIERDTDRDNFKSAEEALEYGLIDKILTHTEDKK
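ClpP 10 microg/mL final, pH 8 Tris/KCl buffer with BSA, glycerol, Tween-20; compound pinned in; FRET-FV substrate; RT 20 min; Ex320/Em430; ΔFRET vs ADEP 5.8 microM, DMSO, no enzyme.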
TRPV1 PAM: enhances activation of the human vanilloid receptor TRPV1. potentiation, % at 8.33 µM. Q8NER1. actives 0.02% (n = 320,000). TRPV1-expressing cells, Fluo-8 calcium influx, capsaicin EC20 potentiation; host cell line not named in the record; control for the full effect not named in the record. AID 540277; active means potentiation above 80%; inconclusive means 30% to 80%; inactive means below 30%; note: 0% is about no effect
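TRPV1-expressing cells were cultured overnight at 35.5C and loaded with Fluo-8 calcium dye for 40 to 90 min at room temperature. After a 10 s baseline, compound was added and calcium influx was read kinetically for 3 min (ex 480/em 520 nm).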
TRPML1 inh: human mucolipin-1 channel inhibition | Q9GZU1 | AID 624415 | activity change, negative = inhibition, % (test concentration not listed) | actives 0.02% (n = 390,000) | TRPML1-inducible cells, Ca2+ dye fluorescence, FDSS; stronger effect = lower value; inhibition of EC80 agonist-evoked calcium signal; in the data active means activity change below about -50%; inconclusive means about -30% to -50%; inactive means above about -30%;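 note: stimulus is agonist 54-4 at its EC80 concentration; % is set by controls: 0 for no effect and ±100 for the full control effect; compound concentration not given in the record; the text of the record puts the active cut at -80%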
Target sequence (Q9GZU1 whole entry, looked up): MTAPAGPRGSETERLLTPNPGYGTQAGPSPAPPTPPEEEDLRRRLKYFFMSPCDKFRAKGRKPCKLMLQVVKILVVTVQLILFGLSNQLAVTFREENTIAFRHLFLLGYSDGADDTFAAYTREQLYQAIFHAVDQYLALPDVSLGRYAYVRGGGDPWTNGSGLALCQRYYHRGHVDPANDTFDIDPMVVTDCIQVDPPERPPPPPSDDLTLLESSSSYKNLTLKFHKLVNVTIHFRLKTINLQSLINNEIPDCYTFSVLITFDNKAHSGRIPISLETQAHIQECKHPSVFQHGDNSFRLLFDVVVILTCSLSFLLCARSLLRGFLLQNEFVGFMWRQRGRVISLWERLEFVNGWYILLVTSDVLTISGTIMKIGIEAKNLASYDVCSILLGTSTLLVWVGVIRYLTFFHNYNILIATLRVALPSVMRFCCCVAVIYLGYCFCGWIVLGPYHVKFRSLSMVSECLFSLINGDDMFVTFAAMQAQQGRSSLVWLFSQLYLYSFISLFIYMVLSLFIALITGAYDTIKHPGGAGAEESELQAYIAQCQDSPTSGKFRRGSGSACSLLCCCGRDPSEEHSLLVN
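TRPML1-DL cells, Tet-induced overnight (~16 h, 37 °C) at 1,500 cells/well, were loaded with Ca8 no-wash dye plus quencher for 45-90 min at room temperature. Compounds were pinned during FDSS kinetic reading; agonist 54-4 at EC80 (4 uM final) then added.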
Menin-MLL FL inh: menin-MLL binding inhibition, fluorescein peptide; AID 1766; FP activity change, % at 61.4 µM; Fluorescence polarization, fluorescein-MLL peptide displacement from menin; 290,000 tested, under 10 active; inconclusive = falling polarisation curve, or a change in total fluorescence; inactive = total fluorescence flat and polarisation flat or rising; no compound was filed as active; the % refers to the polarisation; negative = inhibition;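 note: % of control where 0% means no effect; inhibitors lower the polarisation; unlabelled MLL peptide was the positive control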
TRPML1 agonist: human mucolipin-1 channel agonism; TRPML1-expressing cells, Ca2+ dye fluorescence, FDSS; host cell line not named in the record; reference of the full effect not given here; activation, % (no concentration beside the values); actives 0.12% (n = 410,000); AID 624414; in the data active = activation above about 50%; inconclusive = about 30% to 50%; inactive = below about 30%; note: 0% is about no effect; the text of the record puts the active cut at 80%
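In this qHTS format, compounds were pin-transferred onto Ca8-dye-loaded TRPML1-DL cells induced with Tet overnight, and intracellular Ca2+ fluorescence was recorded kinetically for 110 s after a 10 s baseline. A subsequent 4uM final 54-4 (EC80) addition followed by a second 110 s read served as the antagonist phase.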
Active calls of the source: *; ? = inconclusive; . = no result given; & = joins results of further samples; [ ] = dose if it differs, or a comment.

nr	Structure	PINK1 modulator	Sfp inh	ClpP mod	TRPV1 PAM	TRPML1 inh	Menin-MLL FL inh	TRPML1 agonist
1	Cc1ccc(C)c(OCC(=O)Nc2c(C)n(C)n(-c3ccccc3)c2=O)c1	4.4%	.	-2.0%	27	2	.	-0.5
2	Oc1ccc(-c2[nH]ncc2-c2ccc(Br)cc2)c(O)c1	0.6%	-1%	-2.5%	-6	-22	0.0	0.5
3	O=C(Nc1ccc(Br)cc1)c1ccc(F)c(S(=O)(=O)N2CCc3ccccc32)c1	5.3%	.	-20%	.	43	.	2.1
4	COc1ccc(N2CCN(C(=O)CN3C(=O)NC(C)(C4CC4)C3=O)CC2)cc1 (configuration not stated)	1.5%	.	-6.5%	0	-11	.	0.0
5	C/C=C1\COC(C(=O)NCc2ccccc2)(C(F)(F)F)C=C1C=C1CCCCC1 (configuration not stated)	15%	-8%	-3.5%	.	2&5	2.8	0.6&0.7
6	CCCCC(=O)Nc1ccc(C(=O)N(CC)c2ccccc2C)cc1	-0.6%	20%	.	-12	2	-1.6	0.4
7	CCN(c1ccccc1)c1nnc(NC(=O)Nc2cccc(C(F)(F)F)c2)s1	0.9%	.	1.9%	.	5	.	-0.9
8	CCOc1ccc(S(=O)(=O)N2CCCCC2)cc1NS(=O)(=O)c1cccs1	0.2%	.	-3.0%	1	2	.	0.2
9	CCc1ccc(C(=O)c2cc3ccc(O)cc3oc2=O)cc1	0.1%	11%	-1.5%	1	2	?	-0.5
10	CC1CCCCC12NC(=O)N(CC(=O)NCc1cccs1)C2=O (configuration not stated)	0.4%	.	-3.0%	.	-8	.	-0.8
11	CCC(Sc1nnc(-c2ccc(OC)c(OC)c2)c(-c2ccc(OC)c(OC)c2)n1)C(=O)NC1CCCC1 (configuration not stated)	0.3%	.	?	.	24	.	2.0
12	COc1ccccc1OCc1nnc(SCC(=O)Nc2ccc(N3CCOCC3)cc2)n1C	-0.3%	5%	.	-6	-5	-2.8	1.0
13	O=C(NN1C(=O)/C(=C/C=C/c2ccco2)SC1=S)c1ccncc1	-0.7%	7.9µM*	.	-10	-6	?	0.5
14	COC(=O)CSc1nnc(NC(=O)/C=C\c2ccc3c(c2)OCO3)s1	-1.5%	6%	-3.9%	5	-12	-2.7	-0.5
15	O=C(NCCCN1CCN(c2ccccc2F)CC1)c1cc2c(s1)-c1ccccc1OC2	0.7%	.	4.5%	.	16	.	1.6
16	COc1cc(C(=O)/C=C/c2cccnc2)ccc1O	-0.9%	-8%	.	0	11	.	1.4
17	C=CCNC(=O)c1ccc(CNS(=O)(=O)c2ccc(NC(C)=O)cc2)cc1	2.2%[38.3 µM]	18%	2.2%	-15	-1	1.0	-0.5
18	O=C(NC12CC3CC(CC(C3)C1)C2)N1CCC(n2nnc3ccccc32)CC1	-1.9%	4%	3.4%	-10	7	-1.2	0.0
19	Cc1onc(-c2ccccc2)c1C(=O)OCC(=O)N1CCC(C)CC1	-2.0%	.	-0.2%	-9	-19	.	0.2
20	CC(C)(C)c1ccc(C2SCC(=O)N2c2cccc(C(=O)O)c2)cc1 (configuration not stated)	0.2%	-5%	0.1%	10	-2	-4.1	-0.8
21	CN(C)S(=O)(=O)c1cccc(C(=O)Nc2ccccc2[N+](=O)[O-])c1	1.7%	-6%	-8.9%	-10	-20	1.5	1.1
22	COc1ccc(-c2nc3cnc(N4CCN(C)CC4)nc3n(Cc3ccc(F)cc3)c2=O)cc1	5.4%	?	.	.	.	-17	.
23	CCOc1ccc(C(=O)Nc2cnn(Cc3ccc(Cl)c(Cl)c3)c2)cc1	9.3%[38.3 µM]	22%	-1.4%	.	-4	8.8	-0.4
24	Cc1ccccc1CN1C(=O)/C(=C\c2ccc(C(=O)NCCN3CCOCC3)cc2)Sc2ccccc21	0.0%	-23%	-10%	5	-10	0.8	0.2
25	COc1ccc(N(CC(=O)Nc2cccc(C)c2)S(=O)(=O)c2ccc(C)cc2)cc1OC	5.9%	15%	-1.2%	-1	.	-11	.
26	COc1ccc(NS(=O)(=O)c2cc(NC(=O)Cc3c(F)cccc3Cl)ccc2OC)cc1	-0.5%	.	0.3%	-5	12	.	-0.2
27	O=S1(=O)CCOC[C@H](CC2CCCCC2)N1Cc1cccc(F)c1	12%	14%	1.6%&1.8%	14	16	-0.9	0.8&0.3
28	Cc1ccc2oc(C(=O)NC3CCS(=O)(=O)C3)c(C)c2c1 (configuration not stated)	0.2%	7%	4.0%	-20	-2	-0.6	-0.5
29	CCCCN(C)C(=O)c1nc2ccccn2c1CN1CCC[C@H]1C(=O)OC	-0.7%	10%	.	-25	-1	1.7	0.5
30	Cc1ccc2nccc(C(=O)N3CCCC(N4CCN(c5ccc(F)cc5)CC4)C3)c2c1 (configuration not stated)	1.7%	3%	-4.3%	-7	6	.	0.5
31	O=C(NC(Sc1ccc(Cl)cc1)C(=O)O)c1ccccc1 (configuration not stated)	2.4%	.	-1.4%	.	-2	.	0.1
32	O=C(C1=C(O)C(=O)N(CC2CCCO2)C1c1cccc(O)c1)c1ccco1 (configuration not stated)	0.4%	4%	.	4	50	-1.8	0.4
33	COc1cc(OC)c(NC(=O)C(CC(C)C)N2Cc3ccccc3C2=O)cc1Cl (configuration not stated)	2.8%	.	-3.7%	.	-11	.	-0.2
34	CC(C)(C)c1ccc(C(=O)N2CCC2(C)C(=O)NCc2ccc3c(c2)OCO3)cc1 (configuration not stated)	-0.3%	.	-0.7%	.	.	.	-1.0
35	CC(C)OP(=O)(OC(C)C)C(Nc1ccccc1)c1cccnc1 (configuration not stated)	-0.3%	11%	-0.9%	-2	-2	4.2	0.5
36	CCOC(=O)c1sc(NC(C)=O)c(C(=O)OCC)c1C	0.6%	1%	-0.4%	3	11	-0.3	-0.7
37	FC(F)(F)c1cc(CN2CCCC3(CCNCC3)C2)cc(C(F)(F)F)c1	7.2%	-3%	.	.	.	-3.4	.
38	Cc1cc(Cl)c(OCCOCCN2CCC(C)CC2)c(Br)c1	17%	-5%	-1.2%	-4	16	0.1	1.6
39	CCOC(=O)c1cnn2c(C)cc(-c3ccccc3)nc12	-0.7%	6%	-30%	-15	-2	2.3	-0.5
40	COc1ccc(-c2noc(CCCC(=O)NC3CCCCC3)n2)cc1OC	4.6%	20%	-2.7%	5	-11	2.9	-1.1
41	Cc1nc(Cl)c2c(n1)N(CC(N)=O)C(=O)CO2	-0.2%	8%	-0.3%	-10	22	-5.6	0.3
42	O=C(Cc1ccc(NC(=O)C2CCCN(C(=O)c3ccccc3)C2)cc1)Nc1ccc(C(=O)N2CCOCC2)cc1 (configuration not stated)	0.0%	.	-1.0%	.	-4	.	0.6
43	COC(=O)Cn1ncc2c3ccccc3n(C)c2c1=O	-0.5%	12%	14µM*	-1	15	3.3	-0.3
44	Nc1nc(SCC(=O)Nc2ccc(Cl)cc2C(F)(F)F)n[nH]1	0.0%	4%	2.3%	4	-6	.	-0.4
45	CC(=O)c1ccc(NC(=S)N2CCN(CCN3C(=O)c4cccc5cccc(c45)C3=O)CC2)cc1	0.4%	16%	-2.4%	10	9	-1.4	-0.4
46	CC(=O)N1CCc2c(sc3c2c(=O)n(-c2ccccc2)c(=O)n3Cc2cccc(C(F)(F)F)c2)C1	0.3%	.	-0.3%	.	24	.	1.4
47	O=C1OCCC1Sc1nc2ccccc2c(=O)n1Cc1ccc(F)cc1 (configuration not stated)	5.0%	-1%	0.6%	26	3	2.8	0.5
48	Cc1cc(C)nc(-n2nc(C)cc2NC(=O)c2cccc(S(=O)(=O)N(C)C)c2)n1	?	10%	1.0%	5	12	4.0	-0.3
49	C=CCNC(=S)NNC(=O)COc1cccc(Cl)c1	2.0%[38.3 µM]	10%	0.1%	5	4	-2.4	-0.5
50	Clc1ccccc1-c1nn2c(-c3cc(-c4ccccc4)n[nH]3)nnc2s1	3.3%	.	-24%	.	.	.	-0.3
51	COc1ccccc1NC(=O)/C(C#N)=C/c1cccnc1	-0.6%	9%	-0.1%	-22	0	0.8	-0.2
52	COc1ccc(C(=O)CCC(=O)NCCc2c[nH]c3ccccc23)cc1	2.3%	-3%	.	0	32	5.5	-0.3
53	O=C1C=C(c2ccc(C(=O)O)cc2)C[C@@H](c2ccc(Cl)cc2)C1	-0.2%	.	0.0%	-11	-15	.	-0.3
54	CN(CCOc1ccc(Cl)cc1)C(=O)c1cc([N+](=O)[O-])ccc1N1CCOCC1	0.9%	.	1.2%	2	28	.	-0.4
55	CN(CC1CCCO1)S(=O)(=O)c1ccc(C(=O)N2CCN(c3ccccc3)CC2)cc1 (configuration not stated)	1.0%	10%	.	?	-5	2.0	-0.2
56	c1ccc(-c2ncnc3cc4n(c23)CCC4)cc1	0.4%	1%	28µM*	11	-16	-0.5	-0.6

More results follow.
nr	Structure	PINK1 modulator	Sfp inh	ClpP mod	TRPV1 PAM	TRPML1 inh	Menin-MLL FL inh	TRPML1 agonist
57	Cc1ccccc1OCC(=O)OCC(=O)NCCc1ccccc1	2.3%	.	-1.9%	4	-3	.	-1.4
58	CC1CC(C)(C)CC2(C1)NC(=O)N(CC(=O)NCCc1c[nH]c3ccccc13)C2=O (configuration not stated)	-0.3%	18%	-0.4%	9	-26	?	0.1
59	Cc1ccc(C(=O)Nc2ccc(Cc3ccncc3)cc2)cc1[N+](=O)[O-]	0.1%	6%	0.5%	-8	-5	1.3	-1.6
60	CCOC(=O)CN1C(=O)S/C(=C/c2ccc(N3CCCCC3)o2)C1=O	16%	14µM*	1.3%	-24	-9	?	13
61	CCOC(=O)N1CCC(NC(=O)c2cc(S(=O)(=O)N3CCc4ccccc43)cn2C)CC1	0.9%	6%	-0.7%	7	-6	3.3	-0.2
62	Cc1ccc(C(=O)NCc2nnc3c(C(F)(F)F)cc(Cl)cn23)o1	-0.6%	5%	-2.4%	5	-8	-2.3	-0.6
63	COc1ccc(C(=O)c2cnc[nH]2)cc1OC	1.9%	-2%	-5.6%	15	.	2.1	.
64	COc1ccccc1CC(=O)NNS(=O)(=O)c1ccccc1[N+](=O)[O-]	-2.0%	-2%	.	-1	27	2.3	0.4
65	Cn1c(SCC(=O)c2c(N)n(C)c(=O)n(C)c2=O)nnc1-c1ccccc1	-2.0%	-17%	1.4%	-14	-11	-22	-0.4
